High-throughput results deposited in PubChem by several laboratories.
Calb FLC: C. albicans growth inhibition with fluconazole, primary screen, CaCi-2 strain, Alamar Blue fluorescence | AID 1979, 2009 | hit rate 0.57% among 300,000 | growth inhibition, % (test concentration not listed) | C. albicans CaCi-2 (fluconazole-resistant clinical isolate) + fluconazole, 48 h;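 active means most replicates above 75%; inconclusive means exactly half above 75%; inactive means most below 75%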;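 further: all wells also contain fluconazole at 8 µg/ml as a sub-toxic cotreatment; 0% = median of DMSO wells and 100% = median of geldanamycin control wells; wells of about 8 µL received 7.5 nL stock; the first replicate is given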
LANA-H2B inh: blockers of LANA interaction with H2A/H2B – biochemical, FP readout, HTS, primary screen; Protein LANA1 (Human herpesvirus 8 type P (isolate GK18)), Q9QR71; cell-free LANA-H2A/H2B peptide, fluorescence polarization; inhibition, % (no concentration beside the values); hit rate 0.6% among 320,000; in the data active means inhibition mostly above about 10%, no sharp cut-off; inactive means mostly below about 6.7%;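 further: stock transfer was 7.5 nL into about 10 µL; 0% = median of vehicle wells and 100% = median of positive control wells; one replicate is shown; the record names a cut of 25% in any replicate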
Target sequence (Q9QR71 whole entry, looked up): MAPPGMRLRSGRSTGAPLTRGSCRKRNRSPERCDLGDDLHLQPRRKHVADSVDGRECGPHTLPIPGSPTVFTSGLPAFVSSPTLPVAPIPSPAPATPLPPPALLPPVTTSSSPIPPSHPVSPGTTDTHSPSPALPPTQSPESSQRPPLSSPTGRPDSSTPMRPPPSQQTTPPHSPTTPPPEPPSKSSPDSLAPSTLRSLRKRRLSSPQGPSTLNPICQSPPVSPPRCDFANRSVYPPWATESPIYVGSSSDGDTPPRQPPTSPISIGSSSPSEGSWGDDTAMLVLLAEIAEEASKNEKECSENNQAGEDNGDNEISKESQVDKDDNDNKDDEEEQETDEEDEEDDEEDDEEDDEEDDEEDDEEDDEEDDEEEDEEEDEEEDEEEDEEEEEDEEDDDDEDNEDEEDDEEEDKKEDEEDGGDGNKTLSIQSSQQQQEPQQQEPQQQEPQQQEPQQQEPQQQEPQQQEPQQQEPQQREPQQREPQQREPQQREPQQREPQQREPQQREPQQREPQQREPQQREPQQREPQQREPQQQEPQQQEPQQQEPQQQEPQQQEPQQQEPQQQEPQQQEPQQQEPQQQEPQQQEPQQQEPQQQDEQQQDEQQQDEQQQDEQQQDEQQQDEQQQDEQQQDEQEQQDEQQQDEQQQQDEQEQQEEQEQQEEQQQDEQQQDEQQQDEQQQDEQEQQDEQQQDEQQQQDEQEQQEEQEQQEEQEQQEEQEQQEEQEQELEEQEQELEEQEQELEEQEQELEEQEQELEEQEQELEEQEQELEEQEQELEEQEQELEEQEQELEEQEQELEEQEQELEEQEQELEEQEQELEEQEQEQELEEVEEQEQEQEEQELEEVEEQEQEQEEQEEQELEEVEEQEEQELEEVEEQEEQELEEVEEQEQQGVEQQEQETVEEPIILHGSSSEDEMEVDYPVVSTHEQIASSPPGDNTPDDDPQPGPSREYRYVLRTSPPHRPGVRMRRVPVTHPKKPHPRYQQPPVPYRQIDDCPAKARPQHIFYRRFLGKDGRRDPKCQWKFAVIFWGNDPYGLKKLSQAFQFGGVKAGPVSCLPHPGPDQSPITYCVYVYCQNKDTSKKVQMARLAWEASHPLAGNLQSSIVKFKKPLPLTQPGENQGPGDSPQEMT
MLL AF4-AF9 inh: inhibitors of AF4 peptide binding to AF9, primary screen, biochemical, AlphaScreen, biotin-AF4 peptide, FLAG-AF9, single point. AID 651704, 2012. hit rate 0.47% among 350,000. inhibition, % at 10 µM. Protein AF-9 (Homo sapiens), P42568;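 active means every replicate reaching a set inhibition limit, whatever the replicate mean, cut at about 25% in these data; inconclusive means mean inhibition reaches that limit but some replicates miss it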;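 further: 0% = plate neutral control median and 100% = total signal loss; the record names both 10 and 1 µM as test concentration; the first replicate is given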
Beta cell apopt: inhibitors of cytokine-induced beta cell apoptosis, primary screen, luminescence | INS-1E cytokine-induced death, ATP luminescence, 48 h; percent of positive-control rescue, neutral wells zero | protection from apoptosis, % (test concentration not listed) | hit rate 0.8% among 300,000;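 active means all replicates at 75% or more, or half of them and the mean; inconclusive means half reach 75% but not the mean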;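 further: 0% = cytokine-treated negative control wells and 100% = positive control rescue; higher means more ATP so stronger rescue from cytokine killing; wells of about 40 µL received 100 nL stock; the first replicate is given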
A1 inh: caspase 3/7 activation in MEF A1-2A-BIM cells, primary screen, A1 inhibitor project, cell-based, luminescence, HTS | hit rate 0.066% among 330,000 | caspase activation, % (test concentration not listed) | Caspase-Glo 3/7 luminescence, 3 h; percent of clofoctol response, vehicle zero;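 active means over half of replicate activation scores above 10%, or exactly half above 10 with the replicate mean above 10; inconclusive means replicate mean below 10 yet half the replicates above 10; inactive means over half of replicates below 10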;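 further: wells of about 30 µL received 50 nL stock; many hits fall short of the cut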
RanGTP-Imp inh: inhibitors of RanGTP-importin-beta interaction, primary screen, biochemical, FRET, CFP-Ran, YFP-importin-beta, homogeneous; Ran GTPase (GTP-bound) - importin-beta complex; cell-free CFP-Ran/YFP-importin-beta FRET ratio; inhibition, % (concentration not given with the values); hit rate 1.1% among 300,000;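 active means most replicates above 15%; inconclusive means exactly half above 15%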;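 further: 0% = DMSO wells and 100% = Ran loaded with GDP instead of GTP; wells of about 40 µL received 100 nL stock; the first replicate is given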
Vif A3G: inhibitors of Vif binding to APOBEC3G peptide, primary screen, biochemical, TR-FRET, GST-Vif 1-94, biotin-A3G peptide, dose response retest (AID 1117319). Virion infectivity factor (Human immunodeficiency virus type 1 group M subtype B (isolate …. TR-FRET GST-Vif / biotin-A3G peptide binding; higher % means a stronger effect; test concentration not given here; strong numbers were not always called active. inhibition, %; hits with a dose series show IC50 in µM. hit rate 0.57% among 260,000;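 active means above the screen mean plus three standard deviations and confirmed in dose response; inconclusive means results disagree or hit not tested in dose response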;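 further: Vif residues 1-94 fused to GST binding biotinylated APOBEC3G peptide 110-148; 0% = full assay without inhibitor and 100% = GST in place of GST-Vif; retest series ran down from 100 µM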
T cruzi repl: inhibitors of intracellular T. cruzi growth, primary screen, luminescence, NIH3T3 host cells; hit rate 1.4% among 300,000; inhibition, % (concentration not given with the values); AID 1885, 2009; T. cruzi beta-gal in NIH3T3, 90 h;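 active means mean inhibition across valid replicates above about 55%, limit read from the data; inconclusive means mean below that limit but half or more replicates reach it; inactive means mean below it, under half of replicates reach it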;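 further: signal also drops with host cell toxicity which is not excluded here; 0% = plate median of DMSO wells and 100% = zero luminescence signal; higher percent means less beta-gal luminescence so fewer parasites; stock transfer was 50 nL into about 50 µL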
The depositor's hits bear a star; u = inconclusive; x = no result given; & = joins results of further samples.

SMILES	Calb FLC	LANA-H2B inh	MLL AF4-AF9 inh	Beta cell apopt	A1 inh	RanGTP-Imp inh	Vif A3G	T cruzi repl
O=C(O)CCc1ccc(-c2ccccc2)n1CC(=O)Nc1cccc(C(F)(F)F)c1	-3	-4.3	6.0	-8	1.6	-2.5	x	-16
Cc1ccccc1-c1nc(CS(=O)(=O)CC(=O)N2CCCCC2)c(C)o1	-1	-3.3	-1.2	-6	0.7	0.4	x	3
Cn1c(=O)n(Cc2ccccc2Cl)c2ccccc21	-5	2.0	-1.8	-12	1.4	-5.0	x	27
CCOC(=O)CC1=C(C(=O)OCC)C(c2cc(OC)c(OC)cc2OC)C(C#N)=C(N)O1 (stereo not drawn)	1	2.1	x	-6	-0.9	-2.1	-2%	3
COC(=O)CNC(=O)CNC(=O)Nc1ccccc1Cl	-4	-5.3	x	-2	-0.2	3.6	0%	-20
CC(O/N=C/c1ccc(OC(F)F)cc1)C(=O)Nc1cccc(S(=O)(=O)N2CCOCC2)c1 (stereo not drawn)	0	-0.2	x	3	-1.3	4.0	-9%	-10
Cc1cc(S(=O)(=O)N(Cc2ccccc2F)C2CC2)ccc1-n1cnnn1	-3	-2.6	0.5	3	0.7	4.3	0%	18
CCOc1ccc(S(=O)(=O)N2CCOCC2)cc1NC(=O)CN1C(=O)NC(CC)(c2ccccc2)C1=O (stereo not drawn)	1	3.0	-2.2	-3	0.5	-2.7	x	-2
Nc1cc(C(Cl)=C(Cl)Cl)c(S(N)(=O)=O)cc1S(N)(=O)=O	x	-2.2	-0.5	4	2.0	x	x	x
CNS(=O)(=O)c1cccc(C(=O)OCC(=O)N2CCc3ccccc3C2)c1	-1	-4.0	x	x	1.1	5.4	-3%	7
Nc1c(C(=O)N/N=C/c2ccc(OCc3ccccc3)cc2)cnn1-c1ccccc1	1	-6.6	-3.7	-1	0.5	0.9	6%	9
CC(OC(=O)C1CCCC1)C(=O)Nc1ncc(Cl)cc1Cl (stereo not drawn)	x	0.7	-1.4	-3	0.3	x	-3%	x
Cc1ccc(OC(=O)c2sc3ncn(C)c(=O)c3c2C)cc1	4	-2.1	-1.2	1	-1.6	-4.6	-14%	0
CCn1ncc(/C=C2/SC(=S)NC2=O)c1C	-7	0.9	x	x	-0.7	u	-10%	1
Cc1nc2ccc(C(=O)N/N=C/c3ccc(O)cc3)cc2[nH]1	2	-2.9	0.8	-3	-0.2	-0.9	x	-10
CCN(CC)C(=O)CSc1nc2ccc(NC(=O)CSc3nnc(N)s3)cc2s1	-12	-0.9	x	4	2.0	6.8	13%	-31
COc1ccc(C(=O)NC2CCN(Cc3ccccc3)C2)cc1S(=O)(=O)N1CCOCC1 (stereo not drawn)	x	-1.0	0.8	11	0.7	x	-2%	x
COc1ccc(CNC(=O)CN(Cc2ccccc2Cl)C(=O)c2csnn2)cc1	-15	-2.3	0.4	-11	-0.1	-1.0	0%	16
COc1ccccc1C(CCNS(=O)(=O)c1ccc(C)cc1)c1ccco1 (stereo not drawn)	u	-2.3	-5.1	-1	0.4	4.5	x	10
N=C1/C(=C\c2ccc(OC(=O)c3ccco3)cc2)C(=O)N=C2SC=NN12	-8	x	-1.3	x	x	u	2%	-14
Cc1noc(C)c1C(=O)OCC(=O)Nc1ccccc1SCC#N	x	1.9	1.1	-4	-0.2	x	3%	x
O=C(Cn1cnc2ccccc2c1=O)NCC(=O)N1CCOCC1	-21	-2.4	-7.3	4	0.5	-3.0	1%	-23
C=CCNC(=O)CSc1nnc(-c2cccs2)o1	25	-3.3	x	0	-0.2	7.0	4%	-8
CC(C)=CCc1c(O)cc2c(c1O)C(=O)CC(c1ccccc1)O2 (stereo not drawn)	0	-5.2	-9.9	-1	-0.6	-2.3	x	-19
Cc1ccc(-c2cc(-c3c(C)nn(C)c(=O)c3N)[nH]n2)cc1	0	-4.4	x	1	1.0	1.9	-1%	-5
CC1=C(C(=O)Nc2ccc(C)cc2C)C(c2cccc(Cl)c2)n2nc(C(=O)OC(C)C)nc2N1 (stereo not drawn)	19	-0.3	-2.7	4	-0.2	1.8	-4%	-11
O=C(O)CCN(Cc1ccccc1)S(=O)(=O)c1ccc(Cl)cc1F	9	0.7	-9.0	-6	0.1	2.8	u	1
COc1ccc(CCN2C(=O)CC(C(N)=O)SC2=Nc2ccc(F)cc2)cc1OC (stereo not drawn)	20	12	-1.5	-8	0.7	-0.6	5%	-4
NS(=O)(=O)c1ccc(-c2ccc(/C=N/NC(=O)c3ccc([N+](=O)[O-])cc3)o2)cc1	6	-0.4	3.1	-2	0.5	-3.3	5%	-10
NNC(=O)c1cc(C2CC2)nc2ccc(Br)cc12	-1	3.4	-2.0	3	-0.3	1.3	-6%	2
Cc1cc(Br)c(OCc2ccc(C(=O)N/N=C/c3ccc[nH]3)cc2)c(Br)c1	x	-1.9	2.4	117*	3.2	x	x	x
COc1ccc(C2C3=C(NCCN=C3c3ccccc3)C(=O)N2c2ccccc2)c(OC)c1 (stereo not drawn)	-4	-1.6	0.3	-4	0.7	3.0	21%	3
Cc1ccc(CN2CCSc3ccc(C(=O)N4CCN(c5ncccn5)CC4)cc32)cc1	33	-4.1	x	38	0.1	2.9	-8%	51
COC(=O)C1Cc2c([nH]c3ccccc23)C(C)N1 (stereo not drawn)	0	-1.4	x	-2	-0.5	u	1%	-2
O=S(=O)(c1cccs1)N1CN(C2CCCC2)c2nc3ccccc3nc21	-3	2.7	-2.5	1	-0.8	-0.1	9%	14
COc1ccc(-n2ccnc2SCC(=O)Nc2ccc(OC)cc2OC)cc1	1	1.3	x	0	-0.1	29	-2%	10
S=C(N/N=C1\C2CN3CCN(C2)CC1(c1ccccc1)C3)Nc1ccccc1	-9	1.5	x	0	0.8	-0.3	16%	-19
CS(=O)(=O)N(Cc1ccccc1)c1ccc(C(=O)NN=C2CCCCCC2)cc1	0	4.4	x	-3	-1.6	-1.9	3%	12
Cc1ccc(CN2CC(C(=O)Nc3ccc(F)c([N+](=O)[O-])c3)CC2=O)cc1 (stereo not drawn)	-15	0.6	-1.8	2	-0.2	5.6	2%	-4
O=C(NCc1csc(-c2cccs2)n1)c1ccsc1	12	2.9	-0.8	-9	0.7	3.7	-2%	-10
CC(NC(=O)c1ccc(NC(=O)CC2SC(N3CCCC3)=NC2=O)cc1)c1ccc(F)cc1 (stereo not drawn)	x	3.2	1.6	-5	-0.2	x	-2%	x
COC(=O)c1ccccc1NC(=O)CSc1nc(Nc2ccccc2)nc(N2CCOCC2)n1	-3	4.4	-6.6	2	-0.8	-3.4	x	51
OC(COc1ccccc1)CN1CCN(C(c2ccccc2)c2ccccc2)CC1 (stereo not drawn)	-4	-6.3	0.3	x	-0.1	-0.4	x	14
O=C(O)CCc1ccc(-c2cccs2)n1-c1ccc(C(=O)O)cc1	-3	-1.9	-2.3	8	0.3	0.1	81µM*	1
CN(CC(=O)Nc1cccc2ccccc12)c1ccc(S(=O)(=O)N2CCOCC2)cn1	-1	2.1	x	1	0.3	2.9	-6%&-9%	2
Cc1cc(C)c(OCCN2CC(C)OC(C)C2)c(Br)c1 (stereo not drawn)	-3	-2.2	0.6	-1	0.1	-2.0	x	-3
CCc1nc2ccc(C(=O)N3CCN(c4cccc(Cl)c4)CC3)cc2nc1CC	-2	1.5	0.2	0	1.0	-0.3	x	35
COc1cccc(-c2nnc(SCc3nc4ccccc4s3)n2C)c1	5	9.7	x	0	1.2	5.3	-4%	18
COC(=O)c1ccc(C)c(NC(=O)CSc2nc3[nH]c(=O)cc(O)c3s2)c1	x	x	-2.1	-3	-0.2	x	0%	x
C=CCN1CN(S(=O)(=O)c2cccs2)c2nc3ccccc3nc21	27	7.5	x	3	0.8	x	u	-16
Further results follow.
SMILES	Calb FLC	LANA-H2B inh	MLL AF4-AF9 inh	Beta cell apopt	A1 inh	RanGTP-Imp inh	Vif A3G	T cruzi repl
CCN(CC)C(=O)CSc1nnc(-c2cnccn2)n1-c1ccc(C)cc1	-3	0.4	x	0	1.4	3.0	-1%	8
Cc1cnn(-c2cc(N/N=C/c3ccccc3)ncn2)c1	-14	0.3	3.0	3	0.2	-1.5	28%	-11
COc1ccccc1C(=O)C1CCCN(Cc2cccc(OCCO)c2)C1 (stereo not drawn)	-9	4.8	-2.7	-3	-0.3	0.6	x	26
COc1cccc(-c2csc(N3CCN(C(=S)Nc4ccccc4OC)CC3)n2)c1	4	-4.6	x	x	0.6	3.9	-31%	17
OC(COc1ccc(CN2CCCCO2)cc1)CN1CCCCC1 (stereo not drawn)	-13	-2.2	7.6	-2	0.0	2.1	22%	-10
O=C(c1ccc(S(=O)(=O)Cc2ccccc2Cl)c([N+](=O)[O-])c1)N1CCOCC1	5	6.6	5.2	-44	2.3	1.1	x	-3
COc1ccc(C2CC(c3ccccc3C)n3nc(N)nc3N2)cc1 (stereo not drawn)	-5	-6.1	-2.0	0	-0.3	1.2	1%	24
O=C(NNC(=O)c1ccccc1[N+](=O)[O-])c1ccccc1[N+](=O)[O-]	7	-1.4	-1.3	-1	-0.5	x	-2%	x
Cc1noc(/C=C/N(C)C)c1S(=O)(=O)N1CCCC(C(=O)Nc2ccccc2F)C1 (stereo not drawn)	21	-2.0	-0.3	-2	-0.2	5.6	x	8
Cc1cc(C)c(S(=O)(=O)NCC23C=CC(O2)C2C(=O)N(c4ccccc4)C(=O)C23)c(C)c1 (stereo not drawn)	23	0.8	x	-7	-0.3	1.9	-3%	-7
CCOC(=O)CC(=O)CSc1nc(-c2cccnc2)cc(C)c1C#N	18	x	x	-8	0.3	-7.8	1%	12
COc1cc2c(cc1OC)C(c1ccc(C)cc1)NC(=O)C2 (stereo not drawn)	15	5.8	-0.1	-6	1.2	u	x	-1
O=C(CN(Cc1ccco1)C(=O)CCC(=O)Nc1ccccn1)NCc1ccccc1	-1	2.7	2.3	-1	-0.7	-0.7	x	4
O=C1c2ccccc2CN1C(CO)Cc1ccccc1 (stereo not drawn)	2	3.1	-1.9	-3	u	0.7	-5%	-9
O=C(NCCOc1ccccc1F)c1cccc(S(=O)(=O)N2CCN(c3ccccc3)CC2)c1	-7	0.3	-22	7	0.0	-0.6	-6%	34
CN1CCc2cc3c(c4c2C1CC41CCC(=NO)CC1)OCO3 (stereo not drawn)	-9	2.8	x	-2	1.1	-3.6	u	23
Cc1cc(Br)c(NC(=O)C(C)Sc2nnnn2C)c(Br)c1 (stereo not drawn)	x	-0.3	-6.8	2	-0.4	x	-6%	x
CC(C)c1ccc(CN2CCN(C(=O)CSc3nnnn3C3CC3)CC2)cc1	x	-3.0	-1.9	0	-0.9	x	x	x
CC1(C)NC(=O)N(CCCSc2ccc(Cl)cc2)C1=O	-11	-1.2	x	-8	0.0	12	-3%	9
